RE007 growth inh – less growth of the S. pombe RE007 Vpr strain; hit rate 0.21% among 360,000; Potency, µM (titrated, usually from 92.2 µM), inactives show top-dose activity change, negative = less growth; S. pombe RE007 Vpr strain, BacTiter-Glo ATP luminescence, 24 h; control for the full effect not named in the record; active = well fitted falling curve with a large enough effect; inconclusive = small, poorly fitted or top-dose-only effect; inactive = no such curve, though single readings can be large or run the other way;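 also: % is scaled to controls: 0 for no effect and ±100 for the full control effect; nearly all actives have a fitted effect of over 50% in size; the assay follows cell death caused by Vpr and the record does not say whether a fall means rescue or toxicity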
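Fission yeast strain RE007, carrying one chromosomally integrated HIV-1 vpr copy, was seeded at OD 0.01 in PMG+AL medium with 23 nL pinned compound. After 24 h at 30 °C and 99% humidity, viability was read by BacTiter-Glo luminescence.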
Cruzain Triton – blocks cruzain activity in presence of Triton detergent; P25779; purified cruzain, Z-FR-AMC fluorescence, 0.01% Triton; Potency, µM, for the others: max response, negative = inhibition, usual class: inhibitors; hit rate 0.43% among 200,000; active = well fitted curve in the direction sought with a large enough effect; inconclusive = small, poorly fitted or top-dose-only effect, or another doubt; inactive = no such curve, though single readings can be large; an effect the other way counts as inactive or inconclusive;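 also: plate controls were neutral wells for no effect and buffer without enzyme for full effect; nearly all actives have a fitted effect of over 40% in size; top concentration of the series not given in the record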
Target sequence (P25779 123-467 limits assumed): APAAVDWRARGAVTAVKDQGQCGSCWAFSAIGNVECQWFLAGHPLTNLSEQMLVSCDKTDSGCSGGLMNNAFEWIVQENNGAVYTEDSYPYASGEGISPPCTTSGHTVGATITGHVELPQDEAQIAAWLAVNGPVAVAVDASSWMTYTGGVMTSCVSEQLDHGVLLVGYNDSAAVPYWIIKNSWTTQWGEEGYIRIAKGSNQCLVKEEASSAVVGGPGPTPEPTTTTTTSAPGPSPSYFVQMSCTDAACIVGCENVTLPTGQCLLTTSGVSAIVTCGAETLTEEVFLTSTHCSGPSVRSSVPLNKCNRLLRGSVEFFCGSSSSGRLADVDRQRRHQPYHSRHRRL
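In this qHTS format, compounds are incubated with 1.5 nM cruzain for 15 min at room temperature before 2 uM Z-FR-AMC is added. Release of AMC is followed at 360/450 nm, and progress is taken as the 60 s fluorescence difference.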
Cruzain inh noDet – inhibitors of Trypanosoma cruzi cruzain without detergent | Potency, µM, for the others: max response, negative = inhibition, usual class: inhibitors | P25779 | purified cruzain, Z-FR-AMC fluorescence, no detergent | hit rate 2.3% among 200,000; active = well fitted curve in the direction sought with a large enough effect; inconclusive = small, poorly fitted or top-dose-only effect, or another doubt; inactive = no such curve, though single readings can be large; an effect the other way counts as inactive or inconclusive;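 also: plate controls were enzyme without inhibitor for no effect and buffer without enzyme for full effect; nearly all actives have a fitted effect of over 40% in size; top concentration of the series not given in the record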
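Purified cruzain at 1.5 nM, pre-incubated 15 min with compound at room temperature in 100 mM sodium acetate pH 5.5, 5 mM DTT, 0.00005% Triton X-100. Reaction started with 2 uM Z-FR-AMC; AMC fluorescence increase over 60 s gives rate.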
NS1 function inh – inhibitors of influenza NS1 protein function. hit rate 0.4% among 270,000. AID 2326. Potency, µM (doses to about 46.1 µM), inactives show at the highest dose activity, positive = more growth. S. cerevisiae slowed by influenza A NS1, growth recovery by OD600; also: actives are rising curves; nearly all actives have a fitted effect of over 50% in size
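Recovery from NS1-induced slow growth read by OD600 in budding yeast switched to galactose assay medium (pH 6.0, -URA) at 1:100 dilution. Compound 23 nl per well; the matching strain lacking NS1 serves as control.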
2A StopGo – FMDV 2A StopGo reporter, luciferase signal; Potency, µM (top dose mostly 57.9 µM), without a hit: at the top dose signal change, negative = less light; AID 1159524; human cells with a luciferase reporter of 2A StopGo recoding; control for the full effect not named in the record; hit rate 1.2% among 410,000; active = well fitted falling curve with a large enough effect; inconclusive = small, poorly fitted or top-dose-only effect; inactive = no such curve, though single readings can be large or run the other way; tested in HEK293T cells; also: % is scaled to controls: 0 for no effect and ±100 for the full control effect; nearly all actives have a fitted effect of over 45% in size; luciferase light after 4 h
SARS PLpro yeast – blocks SARS-CoV papain-like protease in a yeast assay; AID 485353; hit rate 0.19% among 330,000; S. cerevisiae expressing SARS-CoV PLpro, growth rescue; control for the full effect not named in the record; Potency, µM (doses to about 32.9 µM), without a hit: at the top dose activity, positive = growth rescue; also: 0% is about no effect; nearly all actives have a fitted effect of over 55% in size; growth read by luminescence after 48 h
Marburg entry inh – Marburg virus entry inhibition | Marburg virus pseudotyped entry inhibition, cell reporter; control for the full effect not named in the record; about a third of the inactives were read at about 46 µM | Potency, µM (series often up to 37.8 µM), for the others: top-dose activity change, negative = inhibition, usual class: inhibitors | hit rate 1.8% among 300,000 | AID 540276; active = well fitted inhibition curve with a large enough effect; inconclusive = small, poorly fitted or top-dose-only effect, or effect the other way; inactive = flat fitted curve, though single readings scatter; tested in HEK293 cells; about a fifth of its hits are not listed in these tables; also: % is scaled to controls: 0 for no effect and ±100 for the full control effect; luciferase read-out
LASV entry inh – blocks Lassa virus binding to or entry into cells | Lassa virus pseudotype entry inhibition, cell reporter; control for the full effect not named in the record | Potency, µM (titrated, usually from 37.9 µM), without a hit: top-dose activity change, negative = inhibition, most hits filed as inhibitors | hit rate 1.2% among 300,000; active means well fitted inhibition curve with a large enough effect; inconclusive means small, poorly fitted or top-dose-only effect, or effect the other way; inactive means flat fitted curve, though single readings scatter; tested in HEK293 cells; also: % is scaled to controls: 0 for no effect and ±100 for the full control effect; nearly all actives have a fitted effect of over 50% in size; luciferase read-out
An asterisk follows results filed as active; ? = inconclusive; · = not tested or not shown; & = joins results of further samples; [ ] = another dose, or the depositor's remark. Unless noted, calls follow the shape of the dose curve; as a rule, active means well fitted rising curve with a large enough effect; inconclusive means small, poorly fitted or top-dose-only effect; inactive means no such curve, though single readings can be large or run the other way. Potency is read from the fitted curve at half-maximal effect.

SMILES	RE007 growth inh	Cruzain Triton	Cruzain inh noDet	NS1 function inh	2A StopGo	SARS PLpro yeast	Marburg entry inh	LASV entry inh
COc1ccc(COC(=O)c2cc([N+](=O)[O-])ccc2N2CCOCC2)cc1F	-28.4%	·	·	·	?	-7.1%	·	?
Cc1ccc2c(Cl)c(C(=O)NCC3CCCO3)sc2c1 (stereo unspecified)	-17.6%	-1.9%	10.6%	1.0%	24.6%	-4.4%	?	?
OCCNCc1c(OCc2ccc(Cl)cc2)ccc2ccccc12	-15.2%	·	·	-0.3%	-21.4%	11.7%	5.62µM*	?
COc1ccc(C(c2c(NC(=O)c3ccccc3)sc(C)c2C)N2CCN(CCO)CC2)cc1 (stereo unspecified)	4.0%	-8.7%	-5.7%	?	-18.5%	9.9%	?	?
Cc1cc(SCC#N)n2nc(C)c(-c3ccc(Cl)cc3)c2n1	-4.7%	-6.4%	11.0%	1.5%	1.2%	2.8%	?	-16.1%
CNS(=O)(=O)c1cccc(C(=O)OCc2cc(Cl)cc3c2OCOC3)c1	18.7%	-9.6%	-13.4%	-42.0%	15.8%	-2.2%	-17.5%	27.4%
O=C(/C=C/c1ccc(O)cc1)OCc1occc(=O)c1O[C@@H]1OC(CO)[C@@H](O)[C@H](O)[C@@H]1O (stereo partly specified)	-2.9%	-2.3%	0.4%	0.9%	-11.7%	-28.3%	23.6%	3.3%
Cc1ccc(NC(=O)NC2CCCCCCC2)c(C)c1	-0.8%	·	·	17.5%	25.6%	1.1%	·	·
COc1ccc(CC2S/C(=C(\C#N)C(=O)NCc3ccco3)N(c3ccc(C)cc3)C2=O)cc1 (stereo unspecified)	-1.2%	-1.1%	-13.4%	-12.7%	-5.3%	4.3%	24.2%	-13.7%
CCOC(=O)c1scc(-c2ccc(C)cc2)c1S(=O)(=O)Nc1cccc(CC)c1	·	-0.3%	-6.7%	·	9.4%	·	·	1.4%[46.1 µM]
CCn1ncc(NC(=S)Nc2ccc(OC)c(OC)c2)c1C(N)=O	-12.8%	·	·	3.8%	26.1%	-0.1%	-3.0%[46.1 µM]	·
CCC(C)NC(=O)Cn1c(=O)n(-c2ccccc2)c(=O)c2ccc(C(=O)NCc3ccco3)cc21 (stereo unspecified)	-8.9%	5.1%	-4.0%	8.9%	23.1%	-5.0%	0.9%	-4.1%
O=C1OCCC1Sc1nnc(-c2cccnc2)n1-c1ccccc1F (stereo unspecified)	2.5%	·	·	·	-16.3%	-1.6%	6.2%[46.1 µM]	-7.8%[46.1 µM]
CC(C)(C)c1cc(CCC(=O)NN)cc(C(C)(C)C)c1O	-3.1%	·	·	·	-13.3%	1.7%	-5.4%[46.1 µM]	?
CCN(CC)S(=O)(=O)c1ccc(N2CCCC2)c(NC(=O)C2CCCCC2)c1	4.3%	·	·	0.7%	-10.2%	-0.5%	·	·
CC(=O)Oc1ccc(C2=Cc3ccc(OC(C)=O)cc3OC2C)cc1 (stereo unspecified)	-3.0%	·	·	·	7.1%	·	?	6.31µM*
CCCCN1CCc2c([nH]c3c(C)cccc23)C1=O	-14.0%	3.2%	?	-15.6%	52.3%[activator]	-1.6%	?	-13.6%
CCOC(=O)C1(CCCc2ccccc2)CCN(C(=O)CN2CCOC2=O)CC1	9.3%	·	·	-4.5%	-18.2%	-0.8%	·	·
CCCCNC(=O)c1c(C)oc2ncn(CC(C)C)c(=O)c12	·	5.1%	0.5%	·	0.0%	·	·	0.1%[46.1 µM]
Cc1c(-c2n[nH]c(=S)n2-c2ccc(C(F)(F)F)cc2)nnn1-c1ccccc1	1.5%	-5.3%	6.6%	?	-22.1%	-13.0%	?	0.9%

Exported with each value named: part of the list above.
SMILES: Cc1ccc2c(Cl)c(C(=O)NCC3CCCO3)sc2c1 (stereo unspecified)
  RE007 growth inh = -17.6%
  Cruzain Triton = -1.9%
  Cruzain inh noDet = 10.6%
  NS1 function inh = 1.0%
  2A StopGo = 24.6%
  SARS PLpro yeast = -4.4%
  Marburg entry inh = ?
  LASV entry inh = ?
SMILES: O=C1OCCC1Sc1nnc(-c2cccnc2)n1-c1ccccc1F (stereo unspecified)
  RE007 growth inh = 2.5%
  Cruzain Triton = ·
  Cruzain inh noDet = ·
  NS1 function inh = ·
  2A StopGo = -16.3%
  SARS PLpro yeast = -1.6%
  Marburg entry inh = 6.2%[46.1 µM]
  LASV entry inh = -7.8%[46.1 µM]
SMILES: Cc1ccc(NC(=O)NC2CCCCCCC2)c(C)c1
  RE007 growth inh = -0.8%
  Cruzain Triton = ·
  Cruzain inh noDet = ·
  NS1 function inh = 17.5%
  2A StopGo = 25.6%
  SARS PLpro yeast = 1.1%
  Marburg entry inh = ·
  LASV entry inh = ·

(further entries)
SMILES	RE007 growth inh	Cruzain Triton	Cruzain inh noDet	NS1 function inh	2A StopGo	SARS PLpro yeast	Marburg entry inh	LASV entry inh
O=C(NC(=S)NCc1cccnc1)c1ccccc1	7.8%	2.0%	10.1%	8.6%	-14.5%	5.7%	-1.9%	-2.1%
Cc1ccc(S(=O)(=O)c2nnn3c2nc(NCc2cccs2)c2sccc23)cc1C	·	-6.3%	?	·	11.2%	·	·	?
Cc1cc(C(=O)O)ccc1NCc1ccncc1	-4.7%	·	·	3.3%	-13.3%	9.2%	20.5%	23.2%
COCCNC(=O)CCSCc1ccccc1F	3.0%	2.2%	-10.6%	-0.5%	·	-1.6%	20.3%	23.3%
Cn1cccc1Cc1nnc(SCC(=O)NCc2ccco2)n1-c1ccc(F)cc1	-13.2%	2.8%	17.2%	4.3%	4.0%	-1.9%	-17.5%	-9.7%
Clc1ccccc1-c1cc(COc2ccc3ccccc3c2)no1	1.7%	2.8%	?	-1.8%	32.8%[activator]	15.2%	-16.4%	2.9%
O=C(O)CSc1c2c(nc3cc(C(=O)Nc4cccc(C(F)(F)F)c4)ccc13)CCCC2	7.2%	·	·	2.5%	-13.5%	?	·	·
CC(C)OC12Oc3ccccc3C=C1N1CCC2CC1 (stereo unspecified)	16.7%	1.4%	-2.7%	-6.5%	-10.2%	-24.3%	0.4%	6.2%
CCOc1ccc(N2C(N)=NC(N)=NC2(C)C)cc1	18.9%	4.9%	9.0%	-16.6%	0.0%	-3.4%	?	4.9%
S=c1[nH]nc(-c2ccccc2)n1/N=C/c1cccc(Cl)c1	8.7%	·	·	13.2%	-21.1%	2.7%	·	·
COc1ccc2[nH]c3c(c2c1)CCN1C(=O)C(CC(=O)NCc2cccc(C(F)(F)F)c2)C[C@H](C(=O)N(C(C)C)C(C)C)[C@@]31C (stereo partly specified)	-9.9%	·	·	·	?	-14.0%	0.7%	·
CC(C)c1ccc(NC(=O)C2CCCN2S(=O)(=O)c2ccc3nc(-c4ccccc4)[nH]c3c2)cc1 (stereo unspecified)	·	-5.0%	-6.4%	·	-6.0%	·	·	-12.4%[46.1 µM]
COc1ccc(OC)c(/C=C/C(=O)OCC(=O)NCc2cccs2)c1	1.1%	·	·	·	-6.2%	1.1%	16.4%	-11.0%
O=C(CCO)c1ccc(O)cc1	9.7%	·	·	-0.1%	-2.8%	-0.3%	·	·
CC(C)NC(=O)c1ccc(-c2ccc(Cl)c(C(F)(F)F)c2)o1	3.4%	-4.4%	-1.9%	6.0%	-3.8%	-9.0%	0.4%	-24.7%
Cc1cc(C(=O)C(C(c2ccccc2)N2CCOCC2)N2CCOCC2)ccc1Cl (stereo unspecified)	1.4%	·	·	·	-13.5%	·	7.1%[46.1 µM]	-2.4%[46.1 µM]
COc1ccccc1C(=O)CSc1ccccn1	-6.5%	·	·	-6.3%	0.0%	-0.2%	11.5%[46.1 µM]	13.7%
COc1ccc(OCCn2cnc3ccccc32)cc1	11.5%	·	·	-27.4%	22.9%	-0.8%	?	?
Cc1c(C=C2C(=O)c3ccccc3C2=O)cc(C#N)n1C	-9.0%	·	·	0.5%	-18.4%	0.9%	·	·
COc1ccccc1-c1coc2cc(OC(=O)N3CCOCC3)ccc2c1=O	6.7%	·	·	-1.6%	48.9%[activator]	-3.5%	·	·
CC1=C(C(=O)N2CCN(C(=O)c3ccco3)CC2)C2(CCC(C)CC2)OC1=O (stereo unspecified)	4.5%	-0.7%	-7.8%	0.6%	-11.8%	-4.5%	·	·
CCOC(=O)c1ccc(N=C2NC(=O)CS2)cc1	31.8%	-5.1%	-20.3%	1.0%	21.7%	-7.5%	2.8%	4.0%
COc1ccc(S(=O)(=O)N2CCN(c3c(C)cccc3C)CC2)cc1OC	20.6%	-9.7%	4.3%	-112.8%	-26.7%	-11.5%	·	·
COc1ccc2c(C)cc(SCC(=O)N3CCOCC3)nc2c1	2.0%	3.3%	12.9%	-11.6%	-10.7%	1.1%	20.8%	?
COc1ccc(CCNC(=O)C23CCC(C)(C(=O)C2Br)C3(C)C)cc1OC (stereo unspecified)	-19.5%	·	·	-9.8%	-15.0%	1.6%	?	?
Cc1cc(NC(=O)c2ccccc2F)cc(C)c1OCC(=O)N1CCOCC1	13.1%	·	·	-1.3%	15.6%	-1.3%	?	-18.8%
COCCNC(=O)COC(=O)c1cc(-c2ccc(OC)cc2)nc2ccccc12	-5.5%	·	·	-5.1%	6.4%	-1.4%	0.5%[46.1 µM]	?
O=C(CCC(=O)c1ccccc1)NCc1cccc(C(F)(F)F)c1	-22.9%	·	·	·	-12.7%	-3.6%	-1.5%	3.0%
CC1CCN(c2nc(-c3ccccc3)cc(C(F)(F)F)n2)CC1	15.2%	4.9%	-1.4%	-5.7%	-6.4%	-13.9%	?	-12.7%
O=C(NCCCN1CCCCC1)c1ccc(CS(=O)c2ccc(F)cc2)o1 (stereo unspecified)	-0.9%	·	·	-6.1%	8.7%	2.9%	·	·
Cc1ccccc1NC(=O)Cn1nnc(C(=O)NCc2ccco2)c1N	-3.0%	-0.3%	3.7%	·	0.8%&-15.5%	0.0%	?	-4.3%[46.1 µM]
